PKD1 inh: inhibitors of human PKD1 kinase, biochemical, fluorescence polarization; inhibition, %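 (about 10 µM by stock and volumes)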; PKD1 kinase fluorescence polarization assay; Serine/threonine-protein kinase D1 (Homo sapiens), Q15139; hit rate 0.056% among 200,000;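 active means inhibition of 50% or more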;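 further: controls were vehicle for no effect and a reference inhibitor for full effect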
HSV replic up: enhancers of HSV replication in host cells, fold increase, host cell viability. HSV replication augmentation in cells. maximum fold increase. hit rate 0.005% among 220,000;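 active means peak rise of 1.5-fold or more in the series; inconclusive means self-fluorescent or not available for retest; tested in PC3 cells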;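 further: first round at 10 µM; read as green reporter fluorescence; hits show the peak of a series up to 25 µM; 1 = signal of infected wells without compound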
GALR2 ag: GALR2 receptor agonists, primary screen, cell-based; Galanin receptor type 2 (Homo sapiens), O43603; GALR2-expressing cells, agonist activation read-out; activation, %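 (tested at 5 µM)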; hit rate 0.48% among 140,000; AID 803, 2007;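 active means above mean plus 3 SD of all compounds, about 5% in these data, not always enough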;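 further: 0% = vehicle buffer wells and 100% = reference agonist at full effect; tested in CHO reporter cells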
Target sequence (O43603 whole entry, looked up): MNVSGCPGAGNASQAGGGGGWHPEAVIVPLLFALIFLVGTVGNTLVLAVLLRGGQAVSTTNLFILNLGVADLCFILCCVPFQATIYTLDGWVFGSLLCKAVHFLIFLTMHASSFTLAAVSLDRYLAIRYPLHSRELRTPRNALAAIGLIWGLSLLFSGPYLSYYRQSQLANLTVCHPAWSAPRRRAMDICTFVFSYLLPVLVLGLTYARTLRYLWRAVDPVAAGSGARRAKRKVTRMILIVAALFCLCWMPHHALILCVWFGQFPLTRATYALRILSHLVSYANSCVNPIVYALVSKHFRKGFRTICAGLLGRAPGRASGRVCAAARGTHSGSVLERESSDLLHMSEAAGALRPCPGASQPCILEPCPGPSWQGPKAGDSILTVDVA
Insulin prom inh: inhibitors of insulin promoter-driven GFP, primary screen, imaging, TRM-6 cells (human fetal islet line), eGFP reporter, cell count | reporter expression induced with tamoxifen | inhibition, % at 2 µM | hit rate 0.9% among 130,000;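 active means inhibition above the mean plus 3 SD, with well images judged a real hit on visual review, cut at about 60% in these data, passing the limit was not always enough; inconclusive means inhibition over the cutoff but images rejected on review; inactive means inhibition not above the cutoff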
RGS16-Gao: modulators of RGS16 binding to Galphao, primary screen, biochemical, human proteins, multiplexed bead flow cytometry; Regulator of G-protein signaling 16 (Homo sapiens) + Guanine nucleotide-binding protein …; bead-based flow cytometry RGS16-Galphao binding, fluorescence; actives lie on both sides; binding response (% of control), % at 10 µM; hit rate 0.38% among 220,000;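 active means below 25% or above 175%, edge rows of some plates excepted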;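 further: Galphao activated by GDP with aluminum fluoride before binding; 100% = wells without compound and 0% = beads without RGS; some results beyond the cut were filed as inactive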
Target sequence (O15492 whole entry, looked up): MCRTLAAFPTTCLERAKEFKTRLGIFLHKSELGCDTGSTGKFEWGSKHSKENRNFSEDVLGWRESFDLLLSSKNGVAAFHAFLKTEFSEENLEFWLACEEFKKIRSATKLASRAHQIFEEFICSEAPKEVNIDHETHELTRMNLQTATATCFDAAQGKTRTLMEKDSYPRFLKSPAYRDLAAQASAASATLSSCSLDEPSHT
Target sequence (P09471 whole entry, looked up): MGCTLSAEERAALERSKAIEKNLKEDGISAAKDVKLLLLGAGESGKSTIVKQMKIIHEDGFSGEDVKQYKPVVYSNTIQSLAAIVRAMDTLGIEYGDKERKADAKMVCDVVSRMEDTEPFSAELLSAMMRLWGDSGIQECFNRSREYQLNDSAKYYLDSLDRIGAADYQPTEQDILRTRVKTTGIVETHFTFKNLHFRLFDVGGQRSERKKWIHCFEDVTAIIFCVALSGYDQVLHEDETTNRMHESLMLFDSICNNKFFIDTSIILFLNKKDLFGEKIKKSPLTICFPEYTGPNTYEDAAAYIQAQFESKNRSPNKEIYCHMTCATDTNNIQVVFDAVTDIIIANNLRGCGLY
Insulin prom inh cell count: second read-out of Insulin prom inh, no call of its own (marks repeat the call); normalized cell count, %; measured here: cell count, toxicity; reference of the scale not given here;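 cells exposed to compound for 48 h; stained nuclei by imaging scaled within each plate; lower means fewer cells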
HSV replic up primary fold: further read-out of HSV replic up, marked with its call; fold increase; compound at 10 µM; measured here: primary screen fold increase 10 uM; tested in PC3 cells;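 GFP signal in the first replicate; 1 = infected wells without compound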
* hit, by the source's call; i = inactive; u = inconclusive; x = not tested or not shown.

The line under a structure holds: PKD1 inh, HSV replic up, HSV replic up primary fold, GALR2 ag, Insulin prom inh, Insulin prom inh cell count, RGS16-Gao
1: CCC(C)(C)NC(=O)CN(CC1CCCO1)C(=O)CCC(=O)Nc1nccs1 (stereo not given)
→ -4, i, 0.94, -1.3, 27, 123, 99
2: Cc1cccc(NC(=O)CC2SC(=NC3CCCCC3)NC2=O)c1 (stereo not given)
→ -2, i, 0.88, -0.1, x, x, 98
3: Cc1cc(CNC(=O)c2ccc(C)c([N+](=O)[O-])c2)c2ccccc2n1
→ -3, i, 0.75, x, x, x, 104
4: CC(Cc1c[nH]c2ccccc12)C(=O)O (stereo not given)
→ -2, i, 0.96, x, x, x, 106
5: COc1ccccc1NC(=O)c1ccccc1NS(=O)(=O)c1cccs1
→ -2, i, 1.1, x, x, x, 104
6: Cc1nn(Cc2ccc(Cl)c(Cl)c2)c(C)c1NC(=O)c1cc(CC(C)C)on1
→ 2, i, 0.92, 2.4, 20, 149, 98
7: O=C(Nc1nnc(CCc2ccccc2)s1)C1CCCO1 (stereo not given)
→ 2, i, 0.96, 1.1, -1, 130, 99
8: COc1ccc2c(c1OC)C(=O)OC2Nc1ncccc1C (stereo not given)
→ -4, i, 1.3, -1.7, 0, 65, 99
9: O=C(N[C@H](C(=O)O)c1ccccc1)C1CCC(Cn2cnc3ccccc3c2=O)CC1 (stereo not given in full)
→ x, i, 1, x, x, x, 102
10: CCOC(=O)Cn1c(=O)c(C#N)cn(C(C)C)c1=O
→ x, i, 1.2, x, x, x, 90
11: CC1CCCN(S(=O)(=O)c2ccc(C(=O)Nc3nnc(-c4ccncc4)o3)cc2)C1 (stereo not given)
→ -5, i, 0.88, x, 18, 100, 99
12: Cn1nnc(NCc2cc(Br)ccc2OCc2cccs2)n1
→ -7, i, 0.99, -1.6, -48, 90, 111
13: COC(=O)c1ccc(-n2c(C)cc(C(=O)CSc3ccc(NC(C)=O)cc3)c2C)cc1
→ -10, i, 0.92, 0.0, -81, 125, 104
14: CC(=O)N1CCc2cc(S(=O)(=O)CCC(=O)O)ccc21
→ 6, x, x, -3.6, x, x, 103
15: CC(NC(=O)CCC1COc2ccccc2O1)c1ccccc1 (stereo not given)
→ 1, i, 0.95, -2.8, 20, 49, 99
16: O=c1c(O)c(-c2cccs2)oc2ccccc12
→ 5, u, x, -1.7, 6, 115, 102
17: CCOC(=O)c1c(/N=C/c2cc(C)ccc2O)sc2c1CCN(C)C2
→ -8, i, 0.97, 0.3, x, x, 99
18: CCCCNC(=O)CSc1nc2ccc(Nc3nc(N4CCOCC4)nc(N4CCOCC4)n3)cc2s1
→ x, i, 0.85, x, x, x, 97
19: CN(C)CCCOc1ccc(Cl)cc1Br
→ 17, i, 1, -0.6, 11, 132, 134
20: O=C(CNC(=O)c1ccc(Cl)cc1Cl)NCCCn1ccnc1
→ -1, i, 0.99, -0.6, 26, 140, 104
21: Cc1cccc(NC(=O)Cn2c(=O)n(Cc3ccccc3)c(=O)c3c(C)c(C)sc32)c1
→ -13, i, 0.96, -1.7, -18, 92, 84
22: COc1cc(NC2=CC(=O)CC(C)(C)C2)cc(OC)c1
→ -1, i, 0.77, -2.2, x, x, 87
23: CCN(CC)CCN1C(=O)c2oc3ccccc3c(=O)c2C1c1ccc(C)cc1 (stereo not given)
→ -3, i, 0.96, -1.8, 36, 101, 122
24: CN1C(=O)C(CC(=O)NC2CCCCC2)N(C)C1=O (stereo not given)
→ -7, i, 0.82, x, x, x, 109
25: COC(=O)c1sc2nc(C)c([N+](=O)[O-])c(C)c2c1N
→ -1, i, 1.1, -1.2, x, x, 99
26: CCOC(=O)N1CCC(NC(=O)Cn2cc3c(n2)CCCCC3)CC1
→ -17, i, 0.7, -1.0, x, x, 98
27: CC(C)(C)C(=O)Nc1nnc(-c2ccncc2)o1
→ 1, i, 1.3, 0.2, x, x, 50
28: COCC(=O)NCCc1ccc(S(N)(=O)=O)cc1
→ -1, i, 0.91, -2.1, -83, 76, 101
29: CC(=O)N1CCN(c2nc(CC(C)C)c3c(c2C#N)CCC3)CC1
→ -5, x, x, 0.6, x, x, 93
30: O=S(=O)(Cc1cc(NCc2ccccc2)nc(-c2ccncc2)n1)c1ccccc1
→ -6, i, 0.84, x, 8, 101, 94

Structural class, the entries above containing a Cl atom (3)
The line under a structure holds: PKD1 inh, HSV replic up, HSV replic up primary fold, GALR2 ag, Insulin prom inh, Insulin prom inh cell count, RGS16-Gao
6: Cc1nn(Cc2ccc(Cl)c(Cl)c2)c(C)c1NC(=O)c1cc(CC(C)C)on1
→ 2, i, 0.92, 2.4, 20, 149, 98
19: CN(C)CCCOc1ccc(Cl)cc1Br
→ 17, i, 1, -0.6, 11, 132, 134
20: O=C(CNC(=O)c1ccc(Cl)cc1Cl)NCCCn1ccnc1
→ -1, i, 0.99, -0.6, 26, 140, 104

Whole records, quoted from the list. Values in the order: PKD1 inh	HSV replic up	HSV replic up primary fold	GALR2 ag	Insulin prom inh	Insulin prom inh cell count	RGS16-Gao
Results for `CC(Cc1c[nH]c2ccccc12)C(=O)O` (stereo not given) → -2	i	0.96	x	x	x	106
Results for `CC(=O)N1CCN(c2nc(CC(C)C)c3c(c2C#N)CCC3)CC1` → -5	x	x	0.6	x	x	93

Looked up above.
Insulin prom inh with compound 12 reads -48
Insulin prom inh with compound 30 reads 8
HSV replic up primary fold with compound 15 reads 0.95
RGS16-Gao with compound 9 reads 102

The listing continues.
The line under a structure holds: PKD1 inh, HSV replic up, HSV replic up primary fold, GALR2 ag, Insulin prom inh, Insulin prom inh cell count, RGS16-Gao
31: COc1ccc(S(=O)(=O)N2CCN(C(=O)c3c(C)nn(-c4ccccc4)c3Cl)CC2)cc1
→ 2, i, 1, 1.4, -14, 121, 121
32: CC1CCCCN1C(=O)CSc1nnc(Cc2ccccc2)n1C (stereo not given)
→ 0, i, 0.98, -1.1, 6, 66, 99
33: CC(C)c1ccc(N2C(=O)CSC23C(=O)N2CCCc4cccc3c42)cc1 (stereo not given)
→ 0, i, 0.81, -0.7, -4, 109, 94
34: Cc1ccc(S(=O)(=O)n2nccc2-c2c(-c3ccccc3)noc2C)cc1
→ x, i, 1.1, x, x, x, 103
35: CC1(C)C2CC=C(/C=N/NC(=O)C3CC3)C1C2 (stereo not given)
→ -2, i, 0.87, x, x, x, 100
36: CCCCCCC1CC(/C(C)=N\NC(N)=O)OC1=O (stereo not given)
→ -9, i, 0.99, -2.1, 21, 126, 104
37: Cc1ccc(S(=O)(=O)Oc2ccccc2N2C(=O)C3CC=CCC3C2=O)cc1 (stereo not given)
→ -15, i, 0.98, -1.4, -57, 58, 99
38: Cc1ccc(NP(=O)(c2ccc(N(C)C)cc2NC(=O)c2cccs2)N2CCOCC2)cc1 (stereo not given)
→ -6, i, 0.91, -0.3, x, x, 103
39: CC(=O)CC(C)(C)NC(C)=S
→ x, i, 0.95, x, x, x, 102
40: O=c1c2c(nc3cc(-c4cccc(Cl)c4)[nH]n13)CCC2
→ -2, i, 0.65, -2.8, -3, 267, 99
41: O=C1c2cccc3cc(Br)cc(c23)C(=O)N1Nc1ccc(Br)cc1
→ -8, x, x, 2.7, x, x, 104
42: CCn1c(SCC(=O)Nc2cc(C)on2)nnc1-c1ccco1
→ 0, i, 0.88, -3.9, 14, 91, 104
43: COc1ccc(/C=C(\C#N)C(=O)NCCCn2ccnc2)cc1
→ -9, i, 1.1, 0.1, -23, 95, 107
44: Cc1cc(C)c2c(c1)cc(C)c1nnc(SCC(=O)Nc3cc(C)on3)n12
→ -10, i, 0.63, 0.2, x, x, 59
45: O=C(/C=C/c1cccc(F)c1)c1ccc(N2CCOCC2)cc1
→ x, i, 1.3, x, x, x, 79
46: Cc1ccc(S(=O)(=O)NCC(=O)OCC(=O)NCc2ccc(F)cc2)cc1
→ 2, i, 1, x, 22, 143, 106
47: CO/N=C1\CCn2c1c(C)c1ccccc12
→ x, i, 1.1, x, x, x, 107
48: COc1cccc(C(=O)NN2CC(O)=C(c3nc(C)cs3)C2=N)c1
→ x, i, 0.93, x, x, x, 102
49: C[C@@H](C(=O)NCc1ccccc1)[C@@H]1C[C@@]1(C)[C@@H](NC(=O)OCc1ccccc1)c1ccccc1
→ -2, i, 0.74, -3.4, 23, 57, 105
50: COc1ccc(/C=C2\CCC/C(=C\C=N\N(C)C)C2=O)cc1
→ 1, i, 0.9, x, -12, 127, 109
51: CC(=O)Nc1ccc(C(=O)N(C)C(C(=O)Nc2ccc(C)cc2)c2ccccn2)cc1 (stereo not given)
→ -8, i, 0.98, 0.5, 30, 109, 104
52: COc1ccc(C(C(=O)Nc2ccc(C(C)C)cc2)N(Cc2ccco2)C(=O)CC2NC(=O)NC2=O)cc1 (stereo not given)
→ -4, i, 0.86, x, 0, 116, 100
53: O=C(Nc1ccc(N2CCN(C(=O)c3ccco3)CC2)cc1)c1cccs1
→ -2, i, 0.68, -0.9, 14, 75, 96
54: COc1ccc(Cn2nnnc2C(c2ccccc2Cl)N2CCN(C3CCCC3)CC2)cc1 (stereo not given)
→ -4, i, 0.97, -1.6, -14, 69, 101
55: Cc1c(Cc2ccccc2)c(=O)oc2cc(O)ccc12
→ x, i, 0.91, x, x, x, 102
56: COc1ccc(CC(=O)N2CC3(C)CC2CC(C)(C)C3)cc1 (stereo not given)
→ -7, i, 0.94, -1.7, -14, 101, 76
57: Cc1cc(OCC(=O)Nc2ccncc2)c(C)cc1Br
→ 4, i, 1.2, -2.5, 10, 122, 106
58: CCCCN(CC)S(=O)(=O)N1CCC(C(=O)NCCCN2CCOCC2)CC1
→ -10, x, x, -0.6, 23, 75, 127
59: CCCC(=O)NCc1ccccc1Cl
→ -1, i, 0.94, x, 45, 85, 98
60: CCCOc1ccc(/C(O)=C2/C(=O)C(=O)N(c3cc(C)on3)C2c2ccc(C(=O)OC)cc2)cc1 (stereo not given)
→ 4, i, 0.99, -2.2, 33, 83, 70

Part of the list above, as labelled records:
#44 Cc1cc(C)c2c(c1)cc(C)c1nnc(SCC(=O)Nc3cc(C)on3)n12
  PKD1 inh: -10
  HSV replic up: i
  HSV replic up primary fold: 0.63
  GALR2 ag: 0.2
  Insulin prom inh: x
  Insulin prom inh cell count: x
  RGS16-Gao: 59

#33 CC(C)c1ccc(N2C(=O)CSC23C(=O)N2CCCc4cccc3c42)cc1 (stereo not given)
  PKD1 inh: 0
  HSV replic up: i
  HSV replic up primary fold: 0.81
  GALR2 ag: -0.7
  Insulin prom inh: -4
  Insulin prom inh cell count: 109
  RGS16-Gao: 94

#34 Cc1ccc(S(=O)(=O)n2nccc2-c2c(-c3ccccc3)noc2C)cc1
  PKD1 inh: x
  HSV replic up: i
  HSV replic up primary fold: 1.1
  GALR2 ag: x
  Insulin prom inh: x
  Insulin prom inh cell count: x
  RGS16-Gao: 103

(next part)
The line under a structure holds: PKD1 inh, HSV replic up, HSV replic up primary fold, GALR2 ag, Insulin prom inh, Insulin prom inh cell count, RGS16-Gao
61: COc1ccccc1CC(=O)Nc1ccc([N+](=O)[O-])cc1O
→ -6, i, 2.2, x, x, x, 106
62: COc1cc(CNCCSc2nnnn2C)cc(Br)c1OCc1ccccc1F
→ 0, i, 0.98, -2.0, 10, 86, 98
63: O=C(NCCc1ccccn1)C(F)(F)C(F)(F)C(F)(F)C(F)(F)C(F)(F)C(F)(F)C(F)(F)C(F)F
→ 7, i, 1.1, -1.2, x, x, 105
64: Cc1cc(NS(=O)(=O)c2ccc(Br)s2)no1
→ -7, i, 0.86, -0.4, 14, 120, x
65: O=C(NCCCc1ccccc1)N1CCOCC1
→ -3, i, 1.1, x, x, x, 99
66: Cc1cnc(C)c(N2CCN(Cc3nc(-c4ccccc4)no3)CC2)n1
→ -6, i, 1.1, x, x, x, 103
67: CCn1c(O)c(N=NC2=NC(=O)CS2)c2cc(C)ccc21
→ 0, i, 0.87, -0.5, 32, 104, 99
68: O=C(CN1N=C(c2ccc(Cl)cc2)CCC1=O)NCCN1CCc2ccccc2C1
→ 10, i, 1.1, 0.5, -81, 101, -2.4*
69: Cc1cccc(NC(=S)NC2CC3CCCC(C2)N3Cc2ccccc2)c1C (stereo not given)
→ 1, i, 0.82, x, x, x, 102
70: CC(=O)Nc1cccc(/C(C)=N/NC(=O)c2ccccc2Cl)c1
→ 7, i, 1.1, -1.0, -57, 117, 111
